High-throughput results: PubChem, SRMLSC
H5N1 antiviral: MDCK cell protection from H5N1 avian flu; actives 0.07% (n = 96,000); AID 740; inhibition, % at 50 µM; cytopathic effect, luminescence, 72 h; hits give high values; no value below 0 was filed and about half of the inactive calls have no number; reference of the scale not given here; in the data active = inhibition above about 25%
Active calls of the source: *; i = inactive. A portion of the library. The share of hits here may be higher or lower than overall.

SMILES | H5N1 antiviral
Cn1c(=O)n(C)c2cc(/C=C3/NC(=O)N(Cc4ccccc4)C3=O)ccc21 | i
COc1ccc(N(C(=O)CNC(=O)c2ccco2)C(C(=O)NC2CCCCC2)c2ccco2)cc1 (stereo unspecified) | i
COc1ccc(OC)c(NC(=O)CN(c2ccc(C(C)C)cc2)S(=O)(=O)c2c(C)noc2C)c1 | 1.9
O=c1c2ccccc2nc(-c2ccccc2)n1CCCn1ccnc1 | 0.9
CC(C)(C)NC(=O)CN(C(=O)CS(=O)CC(=O)Nc1ccc(F)cc1)c1ccccc1 (stereo unspecified) | 0.3
Cn1nc(C(F)(F)F)c(C#N)c1N1CCN(c2ccccc2F)CC1 | i
CCC(C)COC(=O)C(C#N)c1nc2ccccc2nc1N1CCCCC1 (stereo unspecified) | i
CC(Sc1nnc2ccccn12)C(=O)N1CCc2ccccc2C1 (stereo unspecified) | 0.4
CCCCOC1(c2ccccc2)NC(=S)NN=C1c1ccccc1 (stereo unspecified) | i
OC(CNCCc1ccccc1)c1ccccc1 (stereo unspecified) | i
COc1ccc2nc(NC(=O)c3ccc4ncsc4c3)sc2c1 | i
CC(C)(C)C(=O)N1CCCC1C(=O)O (stereo unspecified) | 1.6
CC(C)[C@H](N)c1nnc(SC/C=C/c2ccccc2)o1 | 0.2
Cc1cccc(Oc2sc(C(=O)c3ccccc3)c(N)c2C#N)c1C | 1.2
O=C(c1ccc(Cn2cc(Br)cn2)o1)n1cccn1 | 0.4
CCOc1ccccc1C(=O)n1nc2nc(C)cc(C)c2c1N | 0.2
Cc1ccc2cc(C#N)c(N3CCCC3)nc2c1C | i
COc1ccc(N2CC(C(=O)NCc3cccnc3)CC2=O)cc1 (stereo unspecified) | 0.4
Cc1ccc(-c2nc(C)sc2CC(=O)O)cc1 | i
Cc1cc(C)n(-c2nc(SCC(=O)N3CCCC3)c3c4c(sc3n2)CCCC4)n1 | i
C#CCn1c(S(=O)(=O)Cc2ccc(C)cc2)nc(-c2ccccc2)c1-c1ccccc1 | 1.3
O=C(COC(=O)CCS(=O)(=O)c1ccc(Cl)cc1)NC1CCCCC1 | i
Cc1ccc(CNC(=O)CS(=O)CC(=O)O)cc1 (stereo unspecified) | 0.3
COc1ccc(CCNC(=O)CCCn2c(=O)[nH]c3cc(OC)c(OC)cc3c2=O)cc1OC | 0.3
O=C(NC1CCCCCCC1)c1ccc2c(c1)N(Cc1ccc(F)cc1)C(=O)CS2=O (stereo unspecified) | i
CCc1ccc(S(=O)(=O)NCc2csc(-c3ccccc3)n2)s1 | 1.8
O=C1CCc2cc(S(=O)(=O)N3CCC(C(=O)NCc4ccccc4Cl)CC3)ccc2N1 | 0.7
CC(=O)c1n[nH]nc1NC(=O)c1ccccc1 | i
CCCN1CCN(C(=O)c2cc3c(s2)-c2ccccc2S(=O)(=O)C3)CC1 | 1.9
COc1cccc(C(O)c2cnc(C(C)C)n2C)c1OC (stereo unspecified) | i
CCOC(=O)C1=C(C)Nc2sc(C(=O)c3ccc(Br)cc3)c(N)c2C1c1ccc(C(=O)OC)cc1 (stereo unspecified) | 0.5
CCCCNC(=O)Cn1c(=O)n(C)c2ccccc21 | 2.0
CNC(=O)CN(c1cc(C)ccc1OC)S(=O)(=O)c1ccc(C)cc1 | 1.0
Fc1cccc(CN2CCN3CCCC3C2C2CCCCC2)c1 (stereo unspecified) | i
O=C(C1CCCCN1S(=O)(=O)c1ccccc1)N1CCCCC1 (stereo unspecified) | i
CCSc1nnc(Cn2c(=O)sc3ccccc32)n1C | 1.3

A second format for some results above:
O=C(C1CCCCN1S(=O)(=O)c1ccccc1)N1CCCCC1 (stereo unspecified)
  H5N1 antiviral: i
CCc1ccc(S(=O)(=O)NCc2csc(-c3ccccc3)n2)s1
  H5N1 antiviral: 1.8
CCCN1CCN(C(=O)c2cc3c(s2)-c2ccccc2S(=O)(=O)C3)CC1
  H5N1 antiviral: 1.9
CCSc1nnc(Cn2c(=O)sc3ccccc32)n1C
  H5N1 antiviral: 1.3

(cont.)
SMILES | H5N1 antiviral
CCCNC(=O)c1cnc(Sc2ncc(C(F)(F)F)cc2Cl)n1C | i
CC(=O)OCc1cc(=O)n(C)c(=O)n1C | i
COc1ccc2c(c1)C(=O)CC(c1ccccc1F)O2 (stereo unspecified) | 2.1
Cc1ccc2[nH]c3c(c2c1)CCc1cn[nH]c1-3 | i
CC1CCN(C(=O)CSc2nc(N)cc(N)n2)CC1 | 0.1
COc1ccc(-c2noc(C)c2-c2ccc3ccccc3n2)c(O)c1 | 2.3
Cc1sc2nc(CN3CCOCC3)nc(Oc3ccc(NC(=O)c4ccco4)cc3)c2c1C | i
Cc1cc(NCCCn2ccnc2)n2nc(-c3ccc(F)cc3)cc2n1 | i
CCNc1nc(-c2ccc(Cl)cc2)cs1 | i
Cc1ccc2c(CC(=O)OCc3csc(C)n3)coc2c1 | i
CCC1CCCCN1CCCNC(=O)Cn1nc(-c2ccccc2)ccc1=O (stereo unspecified) | 0.2
CCCn1nnc(NC(=O)c2ccc(-c3ccccc3)cc2)n1 | 0.2

A different layout for part of the listing above:
canonical_smiles: Cc1ccc2[nH]c3c(c2c1)CCc1cn[nH]c1-3
  H5N1 antiviral: i

canonical_smiles: CC1CCN(C(=O)CSc2nc(N)cc(N)n2)CC1
  H5N1 antiviral: 0.1

canonical_smiles: COc1ccc(-c2noc(C)c2-c2ccc3ccccc3n2)c(O)c1
  H5N1 antiviral: 2.3

Retrieved by compound from above:
SMILES | H5N1 antiviral
O=C1CCc2cc(S(=O)(=O)N3CCC(C(=O)NCc4ccccc4Cl)CC3)ccc2N1 | 0.7
CC(=O)OCc1cc(=O)n(C)c(=O)n1C | i

(listing goes on)
SMILES | H5N1 antiviral
CCOC(=O)c1ccc(CSc2nnc(N)s2)cc1 | 0.1
O=C(CSc1nnc(COc2ccc(Cl)cc2)o1)OC1CCCCC1 | i
COC(=O)c1cn(-c2ccccc2)nc1-c1ccncc1 | 0.8
O=C1CC(c2ccco2)Sc2nc3ccccc3n21 (stereo unspecified) | 0.4
Cc1ccc(OCCOCCNC(C)C)c(Br)c1 | i
CCc1cccc(C)c1NC(=O)c1cccc(N(C)C)c1 | i
CCOC(=O)N1CCC(NC(=O)C(Cc2ccccc2)NC(=O)C2CCCCC2)CC1 (stereo unspecified) | 0.2
CC(=O)c1c(C)[nH]c(C(=O)NCc2ccc(C)cc2)c1C | 0.2
Cc1ccc(S(=O)(=O)C(CCC(=O)c2ccc(Cl)cc2)C(N)=O)cc1 (stereo unspecified) | i
CCc1n[nH]c2c1/C(=N/O)CCC2 | 0.0
CCCCn1cnc2c(cnn2-c2ccc(F)cc2)c1=O | i
Cc1nnc(SCC(=O)Nc2ncc(Cl)cc2Cl)n1Cc1ccccc1 | 0.6
CCOc1ccc(-n2c(SCc3ccc(C#N)cc3)nnc2-c2cccnc2)cc1 | 1.6
CCCCNCC(=O)Nc1ccc(NC(=O)CNCCCC)cc1 | i
COc1ccc(-c2noc(-c3ccccc3C(=O)N3CCOCC3)n2)cc1 | i
Cc1cccc(-n2c(CNC(=O)COc3ccccc3)nnc2SCC(=O)Nc2nccs2)c1 | 1.6
O=C(O)c1cnc(-c2ccccc2)nc1Sc1ccccc1Cl | i
Cc1cc2oc3c(c(=O)c2cc1C)C(c1cccc(Br)c1)N(Cc1ccco1)C3=O (stereo unspecified) | i
CCn1c2ccccc2c2cc(NC(=O)CSc3nnc(-c4ccc(OC)cc4)n3N)ccc21 | 0.1
C=CCn1c(COc2ccccc2C)nnc1SCC(=O)O | i
CC[n+]1c(/C=C2\C=C(C)CC(C)(C)C2)sc2ccccc21 | i
CCC1(C)CC(C(CC(=O)O)c2ccc(C)cc2)CCO1 (stereo unspecified) | i
CCOC(=O)/C(C#N)=C/C1=C(N2CCCC2)CC(C)(CC)OC1 (stereo unspecified) | 0.7
O=c1c(=O)n(O)c2ccccc2n1O | i
CCCCn1c(N)c(N(CC(C)C)C(=O)CN(C)Cc2cccc(OC)c2)c(=O)[nH]c1=O | i
COC(=O)c1ccc(OC)c(CSc2nnc(COc3ccc(Cl)cc3)o2)c1 | 1.1
CCC(=O)NC(=S)Nc1ccc(-c2nc3ccccc3s2)cc1 | i
COCCCNC(=O)Cn1nc(-c2ccccc2OC)ccc1=O | i
CN1CCN(C2CCCCCC2)CC1 | 0.1
O=c1[nH]nc(Cc2ccccn2)c2ccccc12 | i
COc1ccc(-c2nc(SCC(=O)NCc3ccco3)c(-c3ccccc3)[nH]2)cc1OC | i
Cc1ccc(CSC2=Nc3ccccc3C3=NC(CCC(=O)NCc4ccco4)C(=O)N23)cc1 (stereo unspecified) | 2.1
COc1ccccc1-n1cnnc1SCc1csc(-c2ccccc2)n1 | 0.5
CCCCCCC(=O)N(O)C1CC(=O)N(Cc2ccccc2)C1=O (stereo unspecified) | i
O=C(O)C1C2C=CC(C2)C1C(=O)N1CCN(C/C=C/c2ccccc2)CC1 (stereo unspecified) | i
CCc1nc(SCC(=O)NCCc2ccc(OC)c(OC)c2)c2c(=O)n(C)c(=O)n(C)c2n1 | 2.0
COc1ccc2c(c1)[nH]c1c(N3CCN(Cc4ccc5c(c4)OCO5)CC3)ncnc12 | 1.1
CCc1cc2cc3c(cc2nc1SCC(=O)N1CCN(C(=O)c2ccco2)CC1)OCO3 | i
c1csc(-c2nn[nH]n2)c1 | 0.1
O=C(NCc1ccco1)c1nnc(Cc2ccc(F)cc2)o1 | 2.6
c1ccc(C(c2ccccc2)N2CCN(Cc3nnnn3C3CCCC3)CC2)cc1 | 0.5
Cc1n[nH]c(C)c1Sc1ccccc1N=Cc1cc(Cl)cc([N+](=O)[O-])c1O | 0.4
COC(=O)c1ccc(C(=O)OC)c(NC(=O)CSCc2ccccc2Br)c1 | i
COCCN1Cc2cccc(C(=O)Nc3ccccc3OC)c2C1=O | 1.5
O=C(O)CC/C(=N\Nc1ccc(S(=O)(=O)N2CCCC2)cc1[N+](=O)[O-])c1cccs1 | 0.9
O=C(O)C1C2C=CC(C2)C1C(=O)N1CCOCC1 (stereo unspecified) | 0.1
COc1ccc(-n2c(N)c(C(=O)NCc3cccnc3)sc2=S)cc1 | 0.6
O=C(c1cc2nc(C3CC3)cc(C(F)(F)F)n2n1)N1CCCC1 | 0.7

Copied from the entries so far, 3 compounds:
SMILES | H5N1 antiviral
Cc1cc(C)n(-c2nc(SCC(=O)N3CCCC3)c3c4c(sc3n2)CCCC4)n1 | i
C#CCn1c(S(=O)(=O)Cc2ccc(C)cc2)nc(-c2ccccc2)c1-c1ccccc1 | 1.3
O=C(COC(=O)CCS(=O)(=O)c1ccc(Cl)cc1)NC1CCCCC1 | i

Continued.
SMILES | H5N1 antiviral
COc1ccc(C2C(C#N)=C(N)Oc3c2c(C)nn3-c2ccccc2)cc1Cn1nc(C)c([N+](=O)[O-])c1C (stereo unspecified) | i
COc1ccc(-n2c(N3CCN(C)CC3)nc3sc4c(c3c2=O)CCCCC4)cc1 | i
O=P(/C(=N/O)N1CCCCC1)(N1CCOCC1)N1CCOCC1 | 0.2
O=C(COc1ccccc1)Nc1ccccc1C(=O)NCc1ccco1 | 0.7
CCC(=O)NC(NC(=O)CC)C(Cl)Cl | 0.3
CCCCN1CN=C(Nc2nc3ccccc3o2)NC1 | i
COc1ccccc1N1CCN(C(=O)c2ccc(NC(C)=O)cc2)CC1 | 1.3
COc1cccc(CNc2ccc(F)c(Cl)c2)c1O | i
Cc1ccc(NC(=S)N/N=C2/CCCc3c(C)cc(C)cc32)cc1 | 0.1
COc1ccccc1N1CCN(Cc2ccccc2Cl)CC1 | 1.6
O=C(CCC(=O)OCC(=O)c1ccc(Cl)cc1Cl)Nc1cccc2cccnc12 | i
BrC(=C\c1ccccc1)/C=N/N1CCN(Cc2ccccc2)CC1 | i
N#CCSc1nnc(Cc2cccs2)n1C1CCCCC1 | 0.1
C(=N\Nc1nc2ccccc2s1)/c1cccs1 | i
CCOC(=O)N1CCC(NC(=O)Cn2cccc2C(=O)c2ccccc2)CC1 | i
CC1(C)Cc2ccccc2-c2nnc(SCC(=O)N3CCc4ccccc43)n21 | 0.2
O=C(O)CCN1C(=O)C2C3C=CC(C3)C2C1=O (stereo unspecified) | 0.1
CC(C)Cn1c2c(c(O)c(C(=O)Nc3nccs3)c1=O)CCCC2 | i
O=S(=O)(NC1CC1)c1ccc(S(=O)(=O)N2CCN3CCCC3C2)cc1 (stereo unspecified) | 0.6
CCOC(=O)c1c(C)n(C)c2cc(Br)c(C)cc12 | i
CCOC(=O)n1c(=O)n(Cc2c(Cl)cccc2Cl)c2ccccc21 | 0.2
CCCc1cc(=O)n2[nH]c(-c3cc(OC)c(OC)c(OC)c3)nc2n1 | 0.2
O=C(O)CC(C(=O)NC1CCCCC1)C1CCCO1 (stereo unspecified) | i
CCCCn1c(C(C)NC(=O)COC)nc2ccccc21 (stereo unspecified) | 0.4
COc1ccc(C(=O)Nc2cc3c(cc2OC)CCCC3)cc1Br | i
COc1cc2[nH]c(=O)n(CCCC(=O)NCCc3ccccc3)c(=O)c2cc1OC | i
COC(=O)c1c(NC(=O)COC(=O)Cn2cnc3ccccc32)sc(C)c1C | 1.3
COC(=O)c1c(NC(=O)CC2Nc3ccccc3NC2=O)sc(C)c1C (stereo unspecified) | i
CCOC(=O)c1c(NC(=O)CSc2nnc(-c3ccccc3)o2)sc(C(C)=O)c1C | i
COc1ccc2nc3c(cc2c1)c(NC(=O)C1CCCO1)nn3CC(C)C (stereo unspecified) | i
CCOc1cc(CNc2ccccc2)cc(Br)c1OCC(=O)NC(C)(C)C | i
COc1cc2c(cc1OC)CN(Cc1ccc(OC)c(C)c1OC)CC2 | i
O=C(N1CCNCC1)N1CCOCC1 | 1.3
O=C1NCCN/C1=C\C(=O)c1ccccc1 | 0.2
Cc1ccc(C(=O)Cn2nnc(-c3ccccc3-n3cnnn3)n2)cc1 | i
Cc1nc2nc(-c3ccc(Cl)cc3)[nH]n2c(=O)c1C | 23
CN(C)c1ccc(/C=N/NC(=O)CN(c2ccccc2Cl)S(C)(=O)=O)cc1Br | i
